Assay outcomes from PubChem BioAssay.
UUG fidelity = alters start codon recognition fidelity in yeast; S. cerevisiae UUG-firefly luciferase reporter, luminescence/redox ratio; 350,000 tested, 0.13% active; AID 602363; activity score, % at 18.7 µM;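 active means replicate mean at a twofold rise or more, about +100% in these data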;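 further: firefly luciferase made from a UUG start codon reports start codon fidelity; reporter light over untreated wells divided by growth signal over untreated wells; some hits fall short of that in this replicate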
MT1-MMP act inh = MT1-MMP (human) activation inhibition | 360,000 tested, 0.061% active | HT1080 RFP-PRO-GFP cells, GFP/RFP ratio fluorescence, overnight; percent of plate control window, DMSO zero | GFP/RFP ratio change, % at 20 µM | P50281 | AID 651647;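 active means GFP/RFP ratio change of at least 30% with cell ATP level not reduced by more than half and red fluorescence within 50% of control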; further: strong numbers were not always called active
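Assay system: HT1080 cells carrying an RFP-PRO-GFP reporter | Dosing: Single dose of 20 µM compound, 1% DMSO final | Incubation: Cells overnight before dosing, compound overnight, 37 °C, 5% CO2 | Evaluation: GFP/RFP fluorescence ratio | Control set: DMSO and RFP-L50D-GFP cell wells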
CSC inhib = blocks cancer stem cells; cancer stem cell-like cells viability, luminescence; inhibition, % at 7.5 µM; 300,000 tested, 1.1% active;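 active means mean at 75% or more and at least half the replicates too; tested in HMLE shEcad cells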;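 further: 0% = median of negative and 100% = median of positive control wells; the first replicate is given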
Env fusion inh = HIV envelope-mediated fusion inhibition; AID 651610; inhibition, % at 12.3 µM; HeLa-JRFL Env/CEM21 cell fusion, luciferase; 360,000 tested, 1.1% active;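 active means mean replicate inhibition score of at least 50 and every replicate individually at or above 50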;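 further: 0% = plate neutral controls and 100% = maraviroc near 300 nM; one replicate is shown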
eIF4H FP inh = inhibitors of RNA binding by human eIF4H; Q15056; eIF4H fluorescence polarization binding assay; inhibition, % at 35 µM; 290,000 tested, 0.94% active; AID 2012;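 active means 50% or more with normal probe brightness, or confirmed in later tests; about a fifth of its hits are not listed in these tables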;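 further: calls also rest on retests at 20 µM and on dose response follow-up; 0% = protein and probe with vehicle and 100% = probe without protein; strong numbers were not always called active; many hits fall short of the cut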
Rce1 inh = yeast Ras-converting enzyme inhibition | Q03530 | yeast membranes, quenched prenylated peptide cleavage fluorescence | calls only | 290,000 tested, 0.27% active | AID 2563;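 active means fall in fluorescence gain of 50% or more versus controls, with final raw signal at or below 3038400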;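 further: plate controls were neutral control wells for no effect and wells lacking membranes for full effect; tested at 10 µM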
PABP polyA inh = PABP-poly(A) binding inhibition | P11940 | PABP-poly(A) RNA binding, fluorescence polarization | inhibition, % at 35 µM | 290,000 tested, 1% active | AID 2014;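 active means 50% or more with normal probe brightness, or confirmed in later tests; about a fifth of its hits are not listed in these tables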;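 further: calls also rest on retests at 20 µM and on dose response follow-up; controls were probe without protein and protein plus probe with vehicle; some compounds called inactive have numbers as strong as hits; many hits fall short of the cut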
Target sequence (P11940 whole entry, looked up): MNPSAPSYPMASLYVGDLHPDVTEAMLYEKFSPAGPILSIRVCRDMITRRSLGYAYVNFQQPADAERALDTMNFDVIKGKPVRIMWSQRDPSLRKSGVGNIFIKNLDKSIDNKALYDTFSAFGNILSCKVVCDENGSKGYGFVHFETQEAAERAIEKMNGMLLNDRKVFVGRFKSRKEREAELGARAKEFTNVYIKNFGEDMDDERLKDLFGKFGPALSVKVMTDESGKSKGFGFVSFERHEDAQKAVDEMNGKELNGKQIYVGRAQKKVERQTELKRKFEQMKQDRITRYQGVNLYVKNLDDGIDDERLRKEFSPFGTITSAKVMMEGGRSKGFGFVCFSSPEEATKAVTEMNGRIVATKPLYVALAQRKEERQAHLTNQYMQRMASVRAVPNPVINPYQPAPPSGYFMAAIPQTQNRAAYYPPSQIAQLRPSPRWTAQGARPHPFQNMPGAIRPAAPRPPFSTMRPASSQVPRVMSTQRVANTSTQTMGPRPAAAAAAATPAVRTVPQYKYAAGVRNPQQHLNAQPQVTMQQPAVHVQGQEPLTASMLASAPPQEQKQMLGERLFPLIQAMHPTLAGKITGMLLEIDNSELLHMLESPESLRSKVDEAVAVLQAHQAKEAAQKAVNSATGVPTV
MT1-MMP act inh RFP = further read-out of MT1-MMP act inh, marked with its call; RFP signal change, %; measured here: RFP expression control read;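 0 = vehicle wells; hits needed this value within 50% of zero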
* = called active by the depositor; i = inactive; . = not tested or not shown.

canonical_smiles	MT1-MMP act inh	eIF4H FP inh	Env fusion inh	PABP polyA inh	MT1-MMP act inh RFP	UUG fidelity	CSC inhib	Rce1 inh
CC(C)(C)c1ccc(NC(=O)N2CCN(c3ccc([N+](=O)[O-])cn3)CC2)cc1	-7	-8	15	-12	-33	.	27	i
CSCCC(NS(=O)(=O)c1ccc(C)cc1)C(=O)NNC(=O)c1csc(N2CCOCC2)n1 (configuration not stated)	-3	-1	7	-4	3	2	9	i
O=C(CCN1CCN(c2ccccc2F)CC1)c1ccc(Br)cc1	-3	-5	.	6	0	.	.	i
CCn1c(CNc2cccc(C(F)(F)F)c2)n[nH]c1=S	1	-4	-13	10	5	.	-3	i
CC(=O)Nc1ccc(S(=O)(=O)NC2(C(F)(F)F)C(=O)Nc3c2c(=O)n(C)c(=O)n3C)cc1 (configuration not stated)	2	-3	.	10	4	-9	.	i
COc1cccc(C(=O)Nc2c3c(nn2-c2ccc([N+](=O)[O-])cc2)CS(=O)(=O)C3)c1	-4	-2	8	10	-1	-5	-14	i
Cc1cc(C)c(C#N)c(OCC(=O)c2ccc(Br)cc2)n1	14	-4	37	-7	2	-7	10	i
O=C(COC(=O)C1CCCCC1)Nc1cc([N+](=O)[O-])ccc1F	3	2	9	22	6	.	-14	i
COc1ccc(OC2(C)CCN(Cc3ccccc3OC(F)F)C2)cc1 (configuration not stated)	2	.	5	.	9	-6	.	.
CCC(C)c1ccc(NC(=O)CC(C)=O)cc1 (configuration not stated)	-5	-3	-110	-2	-1	-17	-6	i
CCOc1cc(C(=O)Nc2ccc(C(=O)NCCN(CC)CC)cc2)ccc1OCC(=O)N1CCOCC1	14	.	-4	.	6	0	.	.
CCCOc1ccc(C(=O)CCNc2ccc(C)c(Cl)c2)cc1	-6	1	.	9	-3	.	5	i
CC(=O)Nc1ccc(-n2nnnc2SCC(=O)NC2CCCC2)cc1	-2	-24	-12	0	1	-15	-8	i
COC(Cn1c2c(c3cc(C)ccc31)CCCC2NCc1ccccc1)OC (configuration not stated)	2	-14	32	-8	-2	-1	.	i
Cc1ccccc1CSc1nc2c(c(=O)[nH]1)CCCC2	.	0	.	1	.	.	14	i
COc1ccc(C(=O)NC(C)c2cccnc2)cc1S(=O)(=O)N(C)Cc1ccccc1 (configuration not stated)	1	.	.	.	-2	-12	0	.
CC1C(=O)NN=C1C(=O)N/N=C/c1cccs1 (configuration not stated)	0	-5	6	6	1	.	-3	i
COC(=O)C1=C(C)N(c2cc(C)cc(C)c2)/C(=C/c2ccco2)C1=O	0	32	22	-8	-4	18	-1	i
Cc1cc(C)c(NC(=O)CS(=O)CC(=O)NCCN2CCCCCC2)c(C)c1 (configuration not stated)	3	10	-9	4	2	7	-10	i
CCCc1ccc(NC(=O)C2CCN(c3cnccn3)CC2)cc1	-3	42	6	8	-5	-2	.	i
O=C(Cn1cc(C(F)(F)F)ccc1=O)N/N=C/c1ccc(Cl)cc1Cl	6	-6	11	13	-4	-11	24	i
CCCN1CCN(CCNC(=O)Nc2ccccc2Cl)CC1	0	2	12	0	-1	-13	3	i
O=S(=O)(N/N=C\C=C\c1ccccc1)c1ccc(Cl)cc1	5	-1	-54	4	5	-4	-5	i
CCCn1nnc(NC(=S)NC(=O)CC)n1	-3	-11	8	9	0	-9	-2	i
Cn1c(C(=O)N2CCCc3ccccc32)cc2c(=O)n3ccccc3nc21	.	-4	.	0	.	.	.	i
O=C1C(Cl)=C(NC2CCCCC2)C(=O)N1Cc1ccccc1	-1	-1	0	1	-1	.	-25	i
O=C(NCC1COc2ccccc2O1)C1CCCN(S(=O)(=O)c2cccc3cccnc23)C1 (configuration not stated)	.	-4	8	-4	.	-12	-2	.
CCCS(=O)(=O)c1nc(S(=O)(=O)c2ccc(C)cc2)c(N2CCN(CCO)CC2)s1	-1	.	-2	.	-1	-9	17	i
CCN1C(=O)N[C@@H](c2cccc(C(F)(F)F)c2)C(C(=O)OC)=C1C	-2	.	21	.	-1	3	-4	i
OC1(c2ccc(Br)cc2)CN(c2ccccc2)C2=[N+]1CCS2 (configuration not stated)	-2	-6	7	7	-4	.	-6	i

Six entries already listed, arranged by formula weight, low to high.
canonical_smiles	MT1-MMP act inh	eIF4H FP inh	Env fusion inh	PABP polyA inh	MT1-MMP act inh RFP	UUG fidelity	CSC inhib	Rce1 inh
CCCn1nnc(NC(=S)NC(=O)CC)n1	-3	-11	8	9	0	-9	-2	i
O=S(=O)(N/N=C\C=C\c1ccccc1)c1ccc(Cl)cc1	5	-1	-54	4	5	-4	-5	i
CCCOc1ccc(C(=O)CCNc2ccc(C)c(Cl)c2)cc1	-6	1	.	9	-3	.	5	i
Cn1c(C(=O)N2CCCc3ccccc32)cc2c(=O)n3ccccc3nc21	.	-4	.	0	.	.	.	i
COc1ccc(OC2(C)CCN(Cc3ccccc3OC(F)F)C2)cc1 (configuration not stated)	2	.	5	.	9	-6	.	.
CSCCC(NS(=O)(=O)c1ccc(C)cc1)C(=O)NNC(=O)c1csc(N2CCOCC2)n1 (configuration not stated)	-3	-1	7	-4	3	2	9	i

Going on with the list:
canonical_smiles	MT1-MMP act inh	eIF4H FP inh	Env fusion inh	PABP polyA inh	MT1-MMP act inh RFP	UUG fidelity	CSC inhib	Rce1 inh
COc1ccc(Cl)cc1NC(=O)CN(C)CC(=O)Nc1ccccc1N1CCOCC1	-3	6	1	18	-15	.	52	i
CN(C(=O)COc1cc(=O)n(C)c2ccccc12)c1cccc(Cl)c1	3	3	8	6	7	11	10	i
CCOCCCNC(=O)Cn1cnc2c(cnn2-c2ccc(OC)cc2)c1=O	1	0	-14	6	1	0	-11	.
CSc1nc(-c2cccs2)c(C#N)c(=O)[nH]1	10	-6	1	8	1	-9	-9	i
CC(NC(=O)CNC(=S)N(Cc1cccs1)C1CCCC1)c1ccccc1 (configuration not stated)	-1	-5	16	-8	-6	-17	-4	i
Cn1c(=O)[nH]c(=O)c2c1nc(N1CCOCC1)n2CCN1CCOCC1	0	2	.	0	0	-11	-20	i
CC1CCN(CCCNc2cc(NCCO)c([N+](=O)[O-])c3nonc23)CC1	6	-2	-9	-4	5	-8	4	i
OCC1CCCN(C(=S)Nc2ccc(Oc3ccccc3)cc2)C1 (configuration not stated)	6	0	-36	-5	-3	-25	9	i
CCCCC1CCC(C(=O)OCC(=O)Nc2ccc(S(N)(=O)=O)cc2)CC1 (configuration not stated)	2	-1	-15	1	2	.	10	i
Nc1ccccc1-c1nc2ccccc2[nH]c1=O	1	-7	13	-1	1	-8	5	i

Compounds from the list above containing a thiophene ring, fused or not (3):
canonical_smiles	MT1-MMP act inh	eIF4H FP inh	Env fusion inh	PABP polyA inh	MT1-MMP act inh RFP	UUG fidelity	CSC inhib	Rce1 inh
CC1C(=O)NN=C1C(=O)N/N=C/c1cccs1 (configuration not stated)	0	-5	6	6	1	.	-3	i
CSc1nc(-c2cccs2)c(C#N)c(=O)[nH]1	10	-6	1	8	1	-9	-9	i
CC(NC(=O)CNC(=S)N(Cc1cccs1)C1CCCC1)c1ccccc1 (configuration not stated)	-1	-5	16	-8	-6	-17	-4	i

Complete entries from above.
Listed for CN(C(=O)COc1cc(=O)n(C)c2ccccc12)c1cccc(Cl)c1 = MT1-MMP act inh: 3; eIF4H FP inh: 3; Env fusion inh: 8; PABP polyA inh: 6; MT1-MMP act inh RFP: 7; UUG fidelity: 11; CSC inhib: 10; Rce1 inh: i
Listed for CCOCCCNC(=O)Cn1cnc2c(cnn2-c2ccc(OC)cc2)c1=O = MT1-MMP act inh: 1; eIF4H FP inh: 0; Env fusion inh: -14; PABP polyA inh: 6; MT1-MMP act inh RFP: 1; UUG fidelity: 0; CSC inhib: -11; Rce1 inh: .

(list continues)
canonical_smiles	MT1-MMP act inh	eIF4H FP inh	Env fusion inh	PABP polyA inh	MT1-MMP act inh RFP	UUG fidelity	CSC inhib	Rce1 inh
COC(=O)C1=C(C(C)=O)C(c2ccc(C)cc2)n2nnnc2N1 (configuration not stated)	-4	1	-47	-7	1	-6	-14	i
Cc1nn(Cc2ccc(Br)cc2)c(C)c1NC(=O)c1nn(C)cc1Cl	-1	-6	.	-1	-10	-13	-10	i
O=C(COC(=O)c1ccc[nH]c1=O)NC1CCCC1	-1	-6	.	-3	1	-9	-14	i
CCc1ccc(OCC(=O)NC(=S)Nc2ccc(F)cc2)c(Br)c1	7	-8	.	-1	-7	-12	-15	i
c1ccc(-n2nnc3c(N4CCOCC4)ncnc32)cc1	0	-6	-92	-8	-1	-61	4	i
COc1ccc(OC(C)C(=O)Nc2cccc([N+](=O)[O-])c2)cc1 (configuration not stated)	3	3	-12	0	-3	19	3	i
O=C1CCCN1c1cc(Cl)cc(Cl)c1	2	3	-33	4	2	.	-4	i
O=C(Oc1ccc(C(=S)N2CCOCC2)cc1)c1ccc(F)cc1	0	4	-12	-1	5	-1	-2	i
C/C(CC(=O)Nc1ccc(Cl)cc1Cl)=N\NC(=O)c1cnccn1	3	0	1	-2	1	.	-5	.
CCOc1ccc(C=NNc2ccc(S(=O)(=O)Nc3ccccc3C(=O)O)cc2[N+](=O)[O-])cc1	18	.	-6	.	1	-9	49	.
Cc1ccc2c(c1)N=C(c1ccccc1)CC(C(Cl)Cl)=N2	-14	49	-88	31	5	-48	20	i
O=C(c1n[nH]c(=O)c2ccccc12)N1CCN(Cc2ccc3c(c2)OCO3)CC1	-1	-7	-18	-1	-5	-6	4	i
COC(=O)C1(C)NC(=O)c2ccccc2N1 (configuration not stated)	-2	0	-10	0	2	-6	-18	i
CCN1CCN(c2ccc(S(=O)(=O)N3CCCCC3)cc2NC(=O)c2ccc(F)cc2)CC1	2	0	-13	-3	3	.	6	i
CC(C)(CNC(=O)c1cccc(F)c1)CNC(=O)c1cccc(F)c1	-1	.	26	.	-3	-22	-15	i
O=C(c1ccc(OC2CCN(CCCc3ccccc3)CC2)cc1)N1CCCC1	0	-4	-249	1	-2	-3	12	i
COC(=O)[C@]1(C)N[C@H](CN(C)C(=O)c2ccc(F)cc2)[C@@H]2C(=O)N(C)C(=O)[C@@H]21	-3	.	19	.	-1	-7	.	.
CCCCCCCN1CCC(=O)N([C@H](CO)CC(C)C)CC1	2	-4	6	-12	2	-17	7	i
COc1cc(OC)cc(-c2nnc(SCC(=O)NCc3cccs3)o2)c1	2	-6	.	-6	3	.	-5	i
NS(=O)(=O)c1ccc(NC(=S)N2CCN(Cc3ccc(Cl)c(Cl)c3)CC2)cc1	4	-2	-7	-8	-5	.	11	i
CN(C)c1nc(N)nc(CSc2ncc(Cl)cc2Cl)n1	0	-11	-86	-12	0	-27	13	i

A portion of the library. The share of hits here may be higher or lower than overall.
